# miR-21 reporter – raises the signal of a miR-21 reporter. HeLa miR-21 FLuc reporter, luciferase, 48 h. Potency, µM (top dose mostly 38.3 µM), for the others: at the highest dose reporter change, positive = more light. 340,000 tested, under 10 active. AID 2288; active = well fitted rising curve with a large enough effect; inconclusive = small, poorly fitted or top-dose-only effect; inactive = no such curve, though single readings can be large or run the other way;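 also: % of control where 0% means no effect; miR-21 action dims this reporter so a rising signal means less miR-21 action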
#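 Luminescence from a firefly luciferase reporter carrying a miR-21 binding site downstream, stably expressed under a CMV promoter in HeLa cells that make miR-21 endogenously, reports miRNA modulation after 48 h compound exposure up to approximately 40uM final.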
# * hit, by the source's call; ? = inconclusive. This is a subset. The share of hits here may be higher or lower than overall.
miR-21 reporter	SMILES
-4%	CCc1ccccc1NC(=O)CN1C(=O)CCn2nc(-c3cccn3C)cc21
10%	Cc1ccc(N2CCN(C(=O)c3cnc(N4CCCCC4)c4ccccc34)CC2)c(C)c1
-39%	COC(=O)c1c(-c2cccs2)csc1NC(=O)c1ccc(C)cc1
-12%	CCc1ccc2c(c1)NC(c1ccc(OC)cc1)=NC(c1ccncc1)=N2
-1%	COc1ccc(N2CC(NC(=O)C(c3ccccc3)c3ccccc3)CC2=O)cc1OC (stereo not drawn)
-5%	O=C(CCC(=O)N1Cc2ccccc2Oc2ncccc21)Nc1ccc(Cl)cc1
-6%	COc1cccc(-n2cc(C(=O)Nc3cccc(C(F)(F)F)c3)c3ccccc3c2=O)c1
-3%	Cc1ccccc1NC(=O)/C(C#N)=C/c1ccc(Cl)cc1Cl
25%	Cc1ccc(C)c(N2CCN(C(=O)C3CCN(S(=O)(=O)c4ccc5[nH]c(=O)oc5c4)CC3)CC2)c1
0%	COc1ccc(CNCc2ccc3c(c2)n(C)c(=O)n3C)cc1
-8%	COc1cccc(NC(=O)c2sc3nc(N4CCOCC4)c4c(c3c2N)CC(C)(C)OC4)c1
16%	Cc1ccc(CN(Cc2ccco2)C(=O)COc2c(C)cc(C)cc2C)cc1
14%	Cc1sc2ncn(CC(=O)Nc3cccc(C(F)(F)F)c3)c(=O)c2c1S(=O)(=O)N1CCC(C)CC1
-5%	Cc1ccc(Sc2ccc(N3CCC(C(=O)Nc4ccc(C)c(F)c4)CC3)nn2)cc1
24%	CCC1CN(C(=O)N2CCC(C(=O)NCc3ccc(OC)cc3OC)CC2)c2cc(C)ccc2O1 (stereo not drawn)
1%	Cc1cc(C(=O)Nc2cccc(C)c2C)c2c(C)nn(-c3cccc(F)c3)c2n1
1%	Cc1cccc(NC(=O)Cn2c(=O)n(CCCCCC(=O)NCc3ccccc3)c(=O)c3sccc32)c1
-2%	COc1ccc(CNC(=O)Cc2c(C)c3cc4c(C)coc4c(C)c3oc2=O)cc1OC
12%	Cc1noc2ncnc(N3CCCC(C(=O)Nc4cccc(C(F)(F)F)c4)C3)c12 (stereo not drawn)
-25%	COc1ccc(-c2cnn3c(C)cc(C)nc23)cc1OC
?	COc1ccc(-c2noc(CSc3nnc(-c4ccccc4)n3-c3ccc(F)cc3)n2)c(OC)c1
-8%	Cn1c(=O)[nH]c(=O)c2c1nc1n(CCO)c(-c3ccccc3)cn21
-2%	O=C(Nc1ccc(F)cc1F)c1cnn(-c2ccc(F)cc2)c1-n1cccc1
?	COc1cccc2cc(C(=O)Nc3ccc(CC(=O)O)cc3)c(=O)oc12
-14%	Cc1c(C(=O)NCc2cccc(Cl)c2)sc2nc[nH]c(=O)c12

# A different layout for four compounds above.
molecule | miR-21 reporter
Cc1ccc(N2CCN(C(=O)c3cnc(N4CCCCC4)c4ccccc34)CC2)c(C)c1 | 10%
COc1ccc(CNC(=O)Cc2c(C)c3cc4c(C)coc4c(C)c3oc2=O)cc1OC | -2%
COC(=O)c1c(-c2cccs2)csc1NC(=O)c1ccc(C)cc1 | -39%
Cc1ccc(CN(Cc2ccco2)C(=O)COc2c(C)cc(C)cc2C)cc1 | 16%

# More results.
miR-21 reporter	SMILES
2%	Cc1ccc(CNC(=O)c2c(C)oc3ncnc(N4CCOCC4)c23)cc1
0%	CC(C)OCCCNC(=O)CCCn1c(SCC(=O)c2ccc(Br)cc2)nc2c(sc3ccccc32)c1=O
1%	Cc1cc(C)c2c(=O)cc(CSc3n[nH]c(C)n3)[nH]c2c1
-7%	CCc1ccc(NC(=O)CSc2nc3c(c(=O)[nH]2)CN(Cc2ccc(C)cc2)CC3)cc1
1%	Cc1nnc(N2CCCC(C(=O)NCCc3ccc(Cl)cc3)C2)c2nn(-c3ccccc3)c(C)c12 (stereo not drawn)
7%	O=C(C1CCC1)N1CCCc2cc(S(=O)(=O)Nc3ccc(F)cc3)ccc21
-1%	CC(=O)c1ccc(NC(=O)C2CCC(CNS(=O)(=O)c3cccc4nsnc34)CC2)cc1 (stereo not drawn)
2%	O=C(C1CCN(S(=O)(=O)Cc2ccccc2)CC1)N1CCN(c2cccc(Cl)c2)CC1
?	COc1cc(C(=O)N2CCc3c([nH]c4ccccc34)C2c2ccc(F)cc2)cc(OC)c1OC (stereo not drawn)
?	Cc1nc2cccnc2n1-c1cccc(C(=O)N2CCN(c3cccc(Cl)c3)CC2)c1
-54%	COc1cc(OC)cc(C(=O)Nc2cc(-c3nc4cc(Cl)ccc4o3)ccc2Cl)c1
-8%	Cc1ccc(-n2ncc(C(=O)NCCN3CCN(C)CC3)c2C2CCN(C(=O)OC(C)(C)C)CC2)cc1C
7%	COc1ccc(CNC(=O)c2nc(SC(C)C)ncc2Cl)cc1
-6%	Cc1cccc(NC(=O)CCS(=O)(=O)c2ccc3c(c2)n(C)c(=O)c(=O)n3C)c1C
?	COc1ccc(S(=O)(=O)c2c(SC)nn(CC(=O)Nc3ccc(C)c(Cl)c3)c2N)cc1
10%	COc1ccccc1NC(=O)C1=C(C)Nc2c(C(=O)Nc3cccc(C)c3)cnn2C1c1ccccc1C (stereo not drawn)
-1%	COc1ccc(NC(=O)C(=O)Nc2ccc3nc4n(c(=O)c3c2)CCCCC4)c(OC)c1
-11%	Cc1cccc(-n2c(C)cc(C(=O)C(=O)Nc3nncs3)c2C)c1
-20%	Cc1cc(C)c2c(CC(=O)Nc3c(C(=O)Nc4ccc(Cl)cc4)oc4ccccc34)coc2c1
-16%	COc1ccc(CCn2cc3c(c2-c2ccccc2Br)c(=O)n(C)c(=O)n3C)cc1OC
8%	COc1cc(NC(=O)CCc2c(C)nc3cc(-c4ccccc4)nn3c2C)cc(OC)c1OC
0%	CCN1CCN(Cc2c(O)ccc3c(C)c(-c4ccccc4)c(=O)oc23)CC1
1%	Cc1cc(C)cc(OCCn2c(CCNC(=O)C3CCCCC3)nc3ccccc32)c1
-2%	COc1cc(OC)cc(-n2c(=O)c3ccccc3n(CC(=O)NCCc3ccc(OC)c(OC)c3)c2=O)c1
6%	Cc1nc2nc(CNC(=O)OC(C)(C)C)nn2c(C)c1CCC(=O)NCc1ccc(F)cc1
-8%	COc1ccc(N2CC(NC(=O)c3ccc(OC(C)C)cc3)CC2=O)cc1 (stereo not drawn)
-1%	CCC(C)NC(=O)Cn1c(=O)n(-c2ccc(Cl)cc2)c(=O)c2c3c(sc21)CCCC3 (stereo not drawn)
1%	COc1ccc(C(=O)/C=C/c2cn(CC(O)CN(CC(C)C)CC(C)C)c3ccccc23)cc1 (stereo not drawn)
-12%	Cc1ccc(CNS(=O)(=O)c2cc3[nH]c(=O)c(=O)[nH]c3cc2C)cc1
-4%	COC(=O)CN1C(=O)CSc2ccc(S(=O)(=O)Nc3ccc(C)c(Cl)c3)cc21
-5%	Cc1ccc2c(c1)N(C(=O)N1CCC(C(=O)Nc3cccc(F)c3)CC1)CCO2
0%	CCCn1c(CCC(=O)Nc2cccc(CC)c2)nc2cccnc21
0%	COc1ccc(-c2csc(-c3nc(-c4ccc(Br)s4)cs3)n2)cc1F
-27%	COc1ccc(OC)c(-n2cnc3cc(C(=O)NC4CCCCCC4)ccc32)c1
12%	CCCCc1ccc(NC(=O)CSc2nc(=O)[nH]c3c2CCCC3)cc1
0%	Cc1ccc2nc(CN3CCN(C(=O)Nc4cccc(C)c4C)CC3)oc2c1
11%	COc1ccc(NC(=O)CN(C)S(=O)(=O)c2ccc3[nH]c4c(c3c2)CCCC4)cc1OC
-53%	Cc1ccc2nc(N3CCN(C(=O)C4COc5ccccc5O4)CC3)sc2c1 (stereo not drawn)
-18%	O=C(NCc1ccccc1Cl)c1cc2c(s1)-c1ccc(Cl)cc1SC2
-7%	Cc1ccccc1OCC(=O)OCc1cc(=O)n2nc(-c3cccs3)sc2n1
-18%	O=C(Nc1ccc(F)cc1F)c1ccc2c(=O)n3c(nc2c1)CCCCC3
-6%	CCCCc1nc2ccccc2n2c(-c3ccc(C)cc3)c3c(=O)n(C)c(=O)n(C)c3c12
-13%	CN(C(=O)CCc1nc(-c2ccccc2F)no1)c1ccc(Cl)cc1
-5%	CCOC(=O)c1c(S(=O)(=O)N2CCN(c3cccc(C(F)(F)F)c3)CC2)c(C)n(C)c1C
-2%	COc1cc(C(=O)NCC(c2ccc(Cl)cc2)N2CCOCC2)cc(OC)c1OC (stereo not drawn)
2%	CCOc1ccccc1C1CC(=O)Oc2c1c(=O)n(C)c1ccccc21 (stereo not drawn)
-4%	O=C(NCCc1ccccc1)c1ccc(Cn2c(=O)c3cccn3c3cccnc32)cc1
-37%	Cc1ccc(CN(C(=O)COc2ccccc2[N+](=O)[O-])c2ccccn2)o1
1%	CCN1CCN(C(c2ccc(F)cc2)c2c(O)cc(C)n(CCOC)c2=O)CC1 (stereo not drawn)
?	O=C1CCSC2(C(=O)N(Cc3ccc(F)cc3)c3ccccc32)N1c1ccc(F)c(F)c1 (stereo not drawn)

# Further records follow.
miR-21 reporter	SMILES
8%	CCOC(=O)c1oc2ccc(S(=O)(=O)n3nc(-c4cc(OCC)c(OCC)c(OCC)c4)cc3N)cc2c1C
1%	O=C(Cn1nc(-c2ccc(Cl)cc2)c2ccccc2c1=O)Nc1cccc(Br)c1
-25%	Cc1cn2c(=O)cc(COc3cccc(NC(=O)c4ccccc4C)c3)nc2s1
-3%	CCOC(=O)C1CCN(C(c2ccccc2)c2c(O)cc(C)n(Cc3ccco3)c2=O)CC1 (stereo not drawn)
?	Cc1c(C(=O)N2CCCC2)oc2c1-c1nn(CC(=O)NCc3ccc(OC(C)C)cc3)cc1CC2
4%	COc1cccc(C2C(C(=O)Nc3ccc(C)cc3C)=C(C)Nc3c(C(=O)Nc4cccc(C)c4)cnn32)c1OC (stereo not drawn)
0%	CCCCn1c(SCC(=O)c2ccccc2)nc2c(sc3ccccc32)c1=O
-4%	Cc1ccc2nc(CSc3nnc(NC(=O)C(C)C)s3)cc(=O)n2c1
-38%	O=C(CN1CCSc2ccccc21)NCc1ccccc1F
-3%	O=c1[nH]c(SCc2ccc(F)cc2)nc2c1CCCC2
-2%	CCC1CCCCN1C(=O)c1nn(-c2ccc(C)cc2)c(=O)c2c1c1ccccc1n2C (stereo not drawn)
-2%	CCOc1ccc(NC2SC(=O)N(Cc3ccccc3)C2=O)cc1 (stereo not drawn)
?	CCOC(=O)c1ccccc1NC(=O)COC(=O)CC(C)(C)CC1=NS(=O)(=O)c2ccccc2N1
18%	Cc1ccc(CNC(=O)c2cc3cc(C)ccc3n2C)cc1
17%	COc1ccc(CNC(=O)c2cc(-c3cccs3)nc3ccccc23)c(OC)c1
-5%	Cc1cccc(-c2nnc(SCC(=O)NC3CCCCC3)o2)c1
0%	CCOc1ccc(CNC(=O)c2cc(=O)[nH]c3ccc(S(=O)(=O)N4CCCC4)cc23)cc1
-4%	Cc1ccc(NC(=O)c2cc(-c3ccc(Br)s3)nc3ccccc23)cc1F
-1%	COc1ccc(CNC(=O)CSc2ncc3c(n2)-c2ccc(Cl)cc2N(Cc2ccccc2)S3(=O)=O)cc1
-1%	COc1ccc(NC(=O)NCC2CCN(Cc3ccccc3F)CC2)c(OC)c1
25%	Cc1cc(N2CCN(c3ccccc3F)CC2)n2cnnc2n1
-44%	CC(=O)c1cccc(NC(=O)c2nc3ccccc3n(C)c2=O)c1
-7%	COc1ccccc1OCC(=O)N1CCC(c2nc3ccccc3o2)CC1
-55%	Cc1ccc(C)c(OCc2nc3ccccc3n2C)c1
1%	CCOCCCNC(=O)Cn1ncc2c([nH]c3ccccc32)c1=O

# Entries shown so far that have bromine, in the order listed:
miR-21 reporter	SMILES
0%	CC(C)OCCCNC(=O)CCCn1c(SCC(=O)c2ccc(Br)cc2)nc2c(sc3ccccc32)c1=O
-16%	COc1ccc(CCn2cc3c(c2-c2ccccc2Br)c(=O)n(C)c(=O)n3C)cc1OC
0%	COc1ccc(-c2csc(-c3nc(-c4ccc(Br)s4)cs3)n2)cc1F
1%	O=C(Cn1nc(-c2ccc(Cl)cc2)c2ccccc2c1=O)Nc1cccc(Br)c1
-4%	Cc1ccc(NC(=O)c2cc(-c3ccc(Br)s3)nc3ccccc23)cc1F

# (listing goes on)
miR-21 reporter	SMILES
10%	Cc1nn(CCC(=O)N2CCN(c3ccccc3F)CC2)c(C)c1S(=O)(=O)N1CCCC1
0%	COc1ccc(C)cc1NC(=O)CC1NCCNC1=O (stereo not drawn)
-12%	Cc1ccc(C(=O)c2sc(Nc3ccc(F)cc3)c(C#N)c2N)cc1
1%	CCOc1ccccc1NC(=O)Nc1ccccc1OCc1cc(=O)n2ccccc2n1
-25%	CCc1ccccc1NC(=O)c1nc(-c2ccncc2)no1
14%	CC(=O)Nc1ccccc1-c1nc2ccccc2n(CC(=O)c2ccc(Br)cc2)c1=O
2%	O=C(Cn1cc(C(=O)C2CCCCC2)c2ccccc21)Nc1ccccc1Cl
-6%	COc1ccccc1NC(=O)C1=C(C)Nc2ncnn2C1c1sccc1C (stereo not drawn)
-4%	Cc1ccccc1CNC(=O)C(=O)NCC(c1ccco1)S(=O)(=O)c1cccs1 (stereo not drawn)
-1%	COC(=O)c1c(-c2ccc(Cl)cc2)noc1N1CCN(c2cccc(C(F)(F)F)c2)CC1
-4%	Cn1c(=O)n(C)c2cc(N3CCOCC3)c(NC(=O)c3ccc(C(C)(C)C)cc3)cc21
1%	Cc1ccc2c(CC(=O)Nc3ccc(S(=O)(=O)N4CCC(C)CC4)cc3)coc2c1
-9%	CCc1cc2c(cc3c(=O)n(CC(=O)N4CCCCC4)nc(CC)n32)s1
